# PAFAH1B2 FP inh = PAFAH1B2 (human) inhibition. P68402. inhibition, % at 3.39 µM. 340,000 tested, 1.2% active. recombinant PAFAH1B2, FP-rhodamine activity probe, fluorescence polarization;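 active = inhibition above the mean of all tested compounds plus 3 SD, cut at about 24% in these data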;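 also: 0% = enzyme with DMSO and 100% = wells lacking PAFAH1B2; many of its hits are not listed in these tables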
# Target sequence (P68402 whole entry, looked up): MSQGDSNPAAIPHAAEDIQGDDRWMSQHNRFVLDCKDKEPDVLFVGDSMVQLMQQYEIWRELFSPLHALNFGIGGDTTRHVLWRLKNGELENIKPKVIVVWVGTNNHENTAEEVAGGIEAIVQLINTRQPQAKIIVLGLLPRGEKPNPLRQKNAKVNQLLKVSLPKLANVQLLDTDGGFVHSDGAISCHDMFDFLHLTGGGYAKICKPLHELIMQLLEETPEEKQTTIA
# PME-1 primary = blocks human protein phosphatase methylesterase 1; 320,000 tested, 0.53% active; recombinant PME-1, FP-Rh probe fluorescence polarization; inhibition, % at 5.9 µM; Q9Y570;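 active = inhibition above the campaign mean of all compounds plus 3 SD, cut at about 26% in these data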;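 also: competitive labeling of PME-1 active site by serine hydrolase directed probe; 0% = PME-1 with DMSO and 100% = wells lacking PME-1 enzyme; inhibitors block probe labeling so polarization falls and inhibition rises; many of its hits are not listed in these tables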
# Target sequence (Q9Y570 whole entry, looked up): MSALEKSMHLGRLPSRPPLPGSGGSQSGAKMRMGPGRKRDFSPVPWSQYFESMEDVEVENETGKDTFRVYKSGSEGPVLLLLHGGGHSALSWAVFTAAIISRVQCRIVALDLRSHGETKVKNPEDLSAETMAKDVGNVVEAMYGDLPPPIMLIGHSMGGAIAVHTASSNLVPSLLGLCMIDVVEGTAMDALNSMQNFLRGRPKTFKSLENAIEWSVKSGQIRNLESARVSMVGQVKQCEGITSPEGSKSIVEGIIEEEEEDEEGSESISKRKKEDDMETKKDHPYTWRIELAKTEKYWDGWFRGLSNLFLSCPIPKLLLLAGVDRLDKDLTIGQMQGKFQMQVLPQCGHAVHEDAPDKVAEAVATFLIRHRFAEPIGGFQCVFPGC
# PAD4 FP inh = inhibitors of human PAD4; Q9UM07; recombinant PAD4, RCA probe fluorescence polarization; inhibition, % at 6.36 µM; 330,000 tested, 0.41% active; AID 485272;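 active = percent inhibition above a cutoff equal to the mean of all tested compounds plus 3 SD, cut at about 15% in these data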;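 also: 0% = PAD4 with RCA probe and DMSO and 100% = probe without PAD4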
# Fam108B inh = blocks mouse Fam108B hydrolase in RBBP9 counter-screen | inhibition, % at 9.51 µM | recombinant Fam108B, FP-Rh probe fluorescence polarization | 300,000 tested, 0.33% active;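 active = inhibition above the screen mean inhibition plus 3 SD, computed separately per campaign, cut at about 18% in these data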;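 also: inhibitors lower polarization as less probe binds the enzyme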
# GSTO1 counter = counter-screen for RBBP9 inhibitors: inhibitors of human GSTO1; P78417; recombinant GSTO1, activity-based probe fluorescence polarization; inhibition, % at 5.96 µM; 300,000 tested, 1.1% active;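 active = inhibition above the campaign mean inhibition plus 3 SD, cut at about 35% in these data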;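 also: 0% = GSTO1-1 with DMSO and 100% = wells lacking GSTO1-1 enzyme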
# Target sequence (P78417 whole entry, looked up): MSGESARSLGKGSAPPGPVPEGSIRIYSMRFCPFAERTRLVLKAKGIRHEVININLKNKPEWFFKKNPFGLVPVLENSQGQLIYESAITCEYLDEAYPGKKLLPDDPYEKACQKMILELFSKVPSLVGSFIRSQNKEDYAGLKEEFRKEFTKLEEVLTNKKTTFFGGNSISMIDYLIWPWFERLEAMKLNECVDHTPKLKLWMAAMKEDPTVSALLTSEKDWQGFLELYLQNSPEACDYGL
# PAFAH2 FP inh = inhibitors of human PAFAH2. Q99487. recombinant PAFAH2, FP-rhodamine activity probe, fluorescence polarization. inhibition, % at 3.39 µM. 340,000 tested, 0.99% active. AID 492956;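 active = inhibition above the mean over all tested compounds plus 3 SD, cut at about 30% in these data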;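 also: inhibitors block probe labeling of enzyme so polarization drops; 0% = enzyme with DMSO and 100% = wells lacking PAFAH2 protein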
# PAFAH1B3 inh = blocks human PAF acetylhydrolase 1B catalytic subunit 3; Q15102; recombinant PAFAH1B3, FP-rhodamine probe, fluorescence polarization; inhibition, % at 3.39 µM; 340,000 tested, 0.28% active;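 active = inhibition above the screen-wide average of all tested compounds plus 3 SD, cut at about 25% in these data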;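 also: 0% = enzyme with DMSO only and 100% = wells lacking PAFAH1B3 protein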
# LYPLA1 inh = counter-screen for PME1 inhibitors: inhibitors of human LYPLA1 | inhibition, % at 5.9 µM | recombinant LYPLA1, FP-Rh probe fluorescence polarization | O75608 | 320,000 tested, 0.16% active;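 active = inhibition above the mean of all tested compounds plus 3 SD, set per campaign, cut at about 14% in these data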;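 also: inhibitors block serine hydrolase probe labeling of LYPLA1 so polarization falls; 0% = enzyme with DMSO and 100% = wells lacking LYPLA1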
# Numbers without * were called inactive; / = no result given. These rows are one share of the data, so the mix of outcomes need not match the whole.
SMILES,PAFAH1B2 FP inh,PME-1 primary,PAD4 FP inh,Fam108B inh,GSTO1 counter,PAFAH2 FP inh,PAFAH1B3 inh,LYPLA1 inh
O=C(COC(=O)Cc1ccsc1)Nc1ccc(Br)cc1,2,2,0,/,/,22,-6,-2
CCc1ccc(NS(=O)(=O)c2ccc3[nH]cc(C(=O)NCC4CCCO4)c(=O)c3c2)cc1 (configuration not stated),0,-14,-12,-5,9,-4,4,-16
N#CCOC(=O)/C=C/c1ccc2c(c1)OCO2,1,4,-4,-1,12,-23,5,2
COc1ccc2c(c1)c(CCNNC(=O)C(C)(C)C)c(C)n2C(=O)c1ccc(Cl)cc1,-4,-3,2,4,17,-2,-5,-3
CCc1ccc(NS(=O)(=O)c2cccs2)cc1,2,1,-4,2,-2,2,1,-2
OC(CN1CCC(Cc2ccccc2)CC1)C(F)(F)F (configuration not stated),-6,-8,-3,-6,8,-3,2,-4
O=C(O)/C=C/c1ccc(S(=O)(=O)Nc2ccc(OCc3ccccc3)cc2)cc1,5,3,3,6,26,2,1,13
O=C(c1cc2cc(F)ccc2[nH]1)N1CCC(Cc2ccccc2)CC1,2,-2,-2,-2,5,-4,4,-11
O=C(c1cccc(S(=O)(=O)Nc2ccc(F)cc2)c1)N1CCCC1,5,1,2,/,/,9,4,-3
Cc1cccc(C(=O)Oc2ccc(/C=N/NC(=O)c3ccncc3)cc2)c1,-3,0,-3,2,-5,-8,1,2
CCOC(=O)CSC1=C(C#N)C(=O)NC2(CCCCC2)S1,1,1,-5,-4,6,4,6,4
Cc1ccc(NS(=O)(=O)c2ccc(NS(=O)(=O)c3cccs3)cc2)cc1,23,-3,-2,-1,4,10,3,-3
COc1ccc2sc(-c3ccc(S(C)(=O)=O)cc3)c(-c3ccc(SC)cc3)c2c1,0,/,2,/,/,-7,-5,/
Cc1ccccc1NS(=O)(=O)c1ccc2[nH]cc(C(=O)N(C)Cc3ccco3)c(=O)c2c1,4,-5,0,-1,5,4,8,6
O=C(CN(Cc1ccc(F)cc1)C(=O)c1ccco1)NCc1ccc(F)cc1,7,-6,3,-3,2,0,0,3
CCOc1ccc(NS(=O)(=O)c2cccc(C(=O)N(C)Cc3ccco3)c2)cc1,2,2,2,/,/,-3,4,1
COc1ccc(/C=N/NC(=O)c2[nH]c3ccc(Cl)cc3c2-c2ccccc2)c(C(=O)O)c1OC,11,-18,-2,-2,-2,9,0,-12
Cc1ccc(/C=C/C(=O)NCc2ccco2)o1,/,3,-2,-2,-3,/,/,-2
O=C(COc1ccccc1Br)N1CCN(C(=O)c2cccs2)CC1,5,2,0,/,/,-4,11,-5
O=C(COC(=O)c1cc(Br)ccc1O)Nc1cccnc1Cl,2,4,-1,2,-7,-1,4,-1

# In the list so far, 4 contain two or more sulfur atoms.
SMILES,PAFAH1B2 FP inh,PME-1 primary,PAD4 FP inh,Fam108B inh,GSTO1 counter,PAFAH2 FP inh,PAFAH1B3 inh,LYPLA1 inh
CCc1ccc(NS(=O)(=O)c2cccs2)cc1,2,1,-4,2,-2,2,1,-2
CCOC(=O)CSC1=C(C#N)C(=O)NC2(CCCCC2)S1,1,1,-5,-4,6,4,6,4
Cc1ccc(NS(=O)(=O)c2ccc(NS(=O)(=O)c3cccs3)cc2)cc1,23,-3,-2,-1,4,10,3,-3
COc1ccc2sc(-c3ccc(S(C)(=O)=O)cc3)c(-c3ccc(SC)cc3)c2c1,0,/,2,/,/,-7,-5,/

# (continued)
SMILES,PAFAH1B2 FP inh,PME-1 primary,PAD4 FP inh,Fam108B inh,GSTO1 counter,PAFAH2 FP inh,PAFAH1B3 inh,LYPLA1 inh
O=c1[nH]c(SCc2cccc(Cl)c2)nc2c1CCCC2,4,2,-2,1,-3,33*,-1,2
O=C(COc1ccc(-c2ccccc2)cc1)N1CCN(S(=O)(=O)Cc2ccccc2)CC1,-5,-4,1,-3,-4,3,6,-2
COc1ccc(NC(=O)CSc2nc3ccccc3c(=O)n2CCNC(C)=O)cc1,8,-4,0,2,0,2,8,1
CCc1ccccc1N=C1S/C(=C/c2ccccc2OCC(=O)N2CCOCC2)C(=O)N1C,3,2,-6,0,-3,-5,1,-2
COc1cc(NS(=O)(=O)c2ccc(Nc3nc(-c4ccccc4)cs3)cc2)nc(OC)n1,16,-2,3,14,10,19,18,9
Cc1ccc(NS(=O)(=O)c2ccc(OCC(=O)NCc3ccccn3)cc2)cc1,4,1,-4,0,5,1,0,0
CCCNC(=O)NC(=O)COC(=O)c1cccc(NS(=O)(=O)c2ccc(F)c(F)c2)c1,2,6,-1,9,-2,-4,0,1
CCCCCCCCCCCC(=O)NC(Cc1ccc(OC)c([N+](=O)[O-])c1)C(=O)O (configuration not stated),28*,-2,-2,-1,16,2,8,1
Cc1ccccc1OCCC(=O)Nc1cccc(S(=O)(=O)Nc2ccccc2Cl)c1,4,7,-3,2,-2,1,4,-4
Cc1ccc(NS(=O)(=O)c2ccc(C(=O)N3CCCC(C(F)(F)F)C3)cc2)cc1 (configuration not stated),2,8,-2,2,3,3,3,4
Cc1ccc2nc(-c3ccc(NS(C)(=O)=O)cc3)cc(-c3ccccc3)c2c1,-6,-24,-1,-21,-12,-18,1,-22
CCc1cc(=O)oc2c3c(cc(OCC(=O)NCCCn4ccnc4)c12)OC(C)(C)CC3,-1,2,1,0,3,39*,4,0
COc1ccc(C(=O)Nn2c(SCC(=O)NCc3ccccc3)nc3ccccc3c2=O)cc1,8,-2,-3,-2,-2,-1,4,-5
CCc1cc2cc3c(cc2nc1SCC(=O)Nc1cc(OC)c(OC)cc1C(=O)O)OCO3,/,-9,-1,-1,-3,/,/,-1
O=C(COC(=O)c1cccc(S(=O)(=O)Nc2ccc(F)cc2)c1)NCCN1C(=O)CSC1=O,-1,-3,-2,-5,-3,7,7,-3
Cc1cccc(NS(=O)(=O)c2cccc(C(=O)NCC3(N4CCCCC4)CCCCC3)c2)c1,1,9,-4,1,2,0,9,-1
COc1ccc(C(CNC(=O)c2ccc(S(=O)(=O)Nc3ccc(F)cc3)cc2)N(C)C)cc1 (configuration not stated),-1,0,2,3,13,-2,-6,3
Cc1cccc(C(=O)O/N=C(/c2ccccc2)c2ccncc2)c1,38*,5,4,5,3,5,2,3
COc1ccc(-n2c(SCC(=O)N3CCCC3)nc3ccccc3c2=O)cc1,/,1,-4,4,2,/,/,0
CC(NC(=O)c1ccccc1NC(=O)CN1CCc2ccccc2C1)c1ccccc1 (configuration not stated),4,-7,-7,-6,7,19,6,-11

# Gathered by group, the compounds so far with four or more nitrogen atoms
SMILES,PAFAH1B2 FP inh,PME-1 primary,PAD4 FP inh,Fam108B inh,GSTO1 counter,PAFAH2 FP inh,PAFAH1B3 inh,LYPLA1 inh
COc1ccc(NC(=O)CSc2nc3ccccc3c(=O)n2CCNC(C)=O)cc1,8,-4,0,2,0,2,8,1
COc1cc(NS(=O)(=O)c2ccc(Nc3nc(-c4ccccc4)cs3)cc2)nc(OC)n1,16,-2,3,14,10,19,18,9
COc1ccc(C(=O)Nn2c(SCC(=O)NCc3ccccc3)nc3ccccc3c2=O)cc1,8,-2,-3,-2,-2,-1,4,-5

# Remaining list, next part.
SMILES,PAFAH1B2 FP inh,PME-1 primary,PAD4 FP inh,Fam108B inh,GSTO1 counter,PAFAH2 FP inh,PAFAH1B3 inh,LYPLA1 inh
CCCn1c(=O)c(C(=O)NNS(=O)(=O)c2ccc(Cl)cc2)c(O)c2ccccc21,9,0,-1,-1,-2,17,-5,-6
CCOC(=O)c1cc(CC)sc1NC(=O)CN1CCN(C(=O)C2CCCO2)CC1 (configuration not stated),-9,2,-2,4,-1,-3,-1,0
Cc1ccc(NS(=O)(=O)c2ccc(C)c(NC(=O)COc3ccccc3)c2)c(C)c1,1,6,-1,0,9,1,2,-4
Cc1ccc(NS(=O)(=O)c2cccc(C(=O)NCc3ccccn3)c2)cc1,1,-4,9,1,7,-1,6,1
O=C(O)c1cccc2c1C(=O)c1ccc(-c3ccc(OC(F)(F)F)cc3)cc1S2(=O)=O,0,/,1,/,/,3,11,/
COc1ccccc1CNc1ccc2nnc(CCNC(=O)c3ccccc3)n2n1,7,15,-1,5,7,3,2,3
COc1ccc(NC(=O)COC(=O)CCC2CCCC2)c(OC)c1,-1,/,-5,/,/,20,2,/
CCOc1ccc(NS(=O)(=O)c2ccc(-c3ccc(=O)[nH]n3)o2)cc1,1,3,-4,3,-3,0,1,-2
COC(=O)[C@H]1CCCN1C(=O)Nc1cccc(Oc2c(F)c(F)c(F)c(F)c2F)c1,2,2,7,0,9,0,6,-1
COc1ccc(S(=O)(=O)Nc2ccc(S(=O)(=O)Nc3ccc(F)cc3)cc2)cc1C,7,-1,0,2,2,3,-2,-4
Cc1nn(-c2ccccc2)c(C)c1NC(=O)COC(=O)c1ccccc1OC(F)F,-2,-2,-2,-2,0,-4,5,3
CCOC(=O)COc1ccc(S(=O)(=O)Nc2ccc(C)cc2)cc1,-1,3,1,2,3,0,3,5
O=C(COC(=O)c1ccc(NS(=O)(=O)c2ccc(Br)s2)cc1)NC1CCCC1,0,3,2,-6,-6,88*,2,-1
O=C(c1ccc(Cl)c(Cl)c1)c1cc(-c2ccccn2)c(N2CCOCC2)s1,-4,4,3,-1,-1,3,3,0
CCOc1ccc(NC(=O)C2CCCN(S(=O)(=O)c3ccc4c(c3)CCCN4C(C)=O)C2)cc1 (configuration not stated),4,-1,-3,-5,-2,6,7,-1
O=C(NNC(=S)NC1CCCCC1)c1cccc(S(=O)(=O)Nc2ccccc2Cl)c1,10,6,2,6,-5,-20,-1,-1
COc1ccccc1Cn1c(C(C)C)nc2ccccc21,4,3,-3,0,2,2,13,-2
CCCN(CCC)C(=O)/C=C/c1cccc([N+](=O)[O-])c1,6,-2,4,2,-1,0,4,4
O=S(=O)(Nc1ccc2oc(-c3ccccc3)nc2c1)c1ccccc1,-3,-22,-1,-7,-3,8,4,-7
CCc1cc(=O)oc2c3c(cc(OCC(=O)NC4CC4)c12)OC(C)(C)CC3,-1,5,-1,-7,2,51*,2,1
CN1CCOc2cc(S(=O)(=O)Nc3ccc(F)cc3)ccc21,2,-1,-2,-4,-1,2,4,8
O=C(COc1ccc(Br)cc1)N1CCC(c2ccccc2)C1 (configuration not stated),0,-5,-6,1,2,8,4,1
COc1ccc(NC(=O)CN(C)C(=O)c2cccc(S(=O)(=O)Nc3ccc(F)cc3)c2)cc1,1,-1,-3,/,/,9,-1,1
Cc1cccc(N2CCN(C(=O)c3ccc(CS(=O)Cc4ccc(Cl)cc4)o3)CC2)c1C (configuration not stated),2,8,5,4,-4,13,4,-1
O=C(NCc1ccco1)C1CCN(c2nc3ccccc3n2Cc2ccccc2F)CC1,3,5,-2,0,8,7,3,3
C=CCN1C(=O)c2ccc(C(=O)OCC(=O)N(C)C3CCCCC3)cc2C1=O,-1,-5,-1,-3,0,-9,0,6
Cc1ccc(Oc2ccc3c(c2)C(=O)N(c2ccc(S(=O)(=O)Nc4nccs4)cc2)C3=O)cc1,3,5,-3,3,-5,11,12,-5
O=S(=O)(Nc1ccc(S(=O)(=O)Nc2ccccc2)cc1)c1ccccc1,8,7,1,-3,-7,7,2,-2
Cc1ccc(NS(=O)(=O)c2cccc(C(=O)n3ncc(C#N)c3N)c2)c(C)c1,23,-1,-3,-1,1,0,7,-2
COc1ccc2c(c1)c(CC(=O)OCC(=O)N(C)C)c(C)n2C(=O)c1ccc(Cl)cc1,3,-5,-5,1,-5,15,-3,-3
CCN(CC)c1ccc(C(=O)OCC(=O)NC2CCCCC2C)cc1 (configuration not stated),-3,0,3,-3,1,87*,5,-2
CC(C)c1ccc(S(=O)(=O)Nc2ccc(SC(F)F)cc2)cc1,5,-1,-7,-1,-2,-1,6,0

# Compound activity deposited in PubChem BioAssay by The Scripps Research Institute Molecular Screening Center.
